Prx2 Sm inh: Schistosoma Mansoni Peroxiredoxins (Prx2) | Schistosoma mansoni peroxiredoxin 2 (Prx2) | S. mansoni Prx2 activity coupled to TGR/GSH (TGR is thioredoxin glutathione reductase), NADPH fluorescence loss, qHTS; some inactives read as strong as hits | Potency, µM | 65,000 compounds, 0.07% hits | AID 448, 2006; active means full or partial inhibition curve with a strong effect at the top dose; inconclusive means weaker partial or single-point curve; inactive means no accepted curve; further: series up to 57 µM; many of its hits are not listed in these tables
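qHTS, coupled TGR/Prx2 format; 15 min compound preincubation at RT; reaction started with H2O2 (2.5 mM aliquot); kinetic NADPH fluorescence decrease, ex 365/em 450 nm.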
LT uptake inh: qHTS Assay for Anthrax Lethal Toxin Internalization | Cells, anthrax lethal toxin internalization, FRET ratio (460/530) | Potency, µM (highest dose often 40 µM), inactives show at the highest dose activity change, negative = inhibition, hits mostly inhibitors | 70,000 compounds, 0.67% hits | AID 912, 2007; active = well fitted falling ratio curve with the 530 nm signal flat; inconclusive = other ratio curves, or a change in one channel alone; inactive = flat curves in the ratio and both channels; the % refers to the ratio; further: on the % scale 0 is the no-effect control and ±100 the full control effect; nearly all actives have a fitted effect of over 50% in size; tested in ME-180 cells; beta-lactamase reporter
* marks the source's active call; other numbers are inactive results; ? = inconclusive; / = no result given; [ ] = dose if it differs, or a comment. Potency means the concentration at half of the fitted maximal effect. Not all compounds are listed; the hit share may differ from the screen's.

Sequence of screens: Prx2 Sm inh, LT uptake inh
> O=C1C2C3C=CC(C3)C2C(=O)N1c1ncn[nH]1 (centres undefined)
→ >57, 6.2%
> CC(=O)NS(=O)(=O)c1ccc(NC(=O)CCC2CCCC2)cc1
→ >57, -6.1%
> Cc1cc(C(=O)CSc2nc3ccccc3c(=O)n2C)c(C)n1Cc1ccc2c(c1)OCO2
→ >57, ?
> Cc1ccc(CCNC(=O)CN2C(=O)COc3ccccc32)cc1
→ >57, 0.7%
> CCCCCCN(C(=O)CCCCCN1C(=O)NC(c2ccc(-c3ccccc3)cc2)C(C(=O)OCc2ccccc2)=C1C)C(C(=O)NCCCC)c1ccc(OCC(=O)OC)c(C(=O)OC)c1 (centres undefined)
→ >57, ?
> CC(C)c1nnc(NC(=O)c2cccs2)s1
→ >57, 10.7%
> Cc1ccc(OCC(=O)Nc2cccc(-c3nnc(-c4ccccc4)o3)c2)cc1
→ >57, ?
> Cc1noc(C)c1COC(=O)C1COc2ccccc2O1 (centres undefined)
→ >57, 15.4%
> CCOC(=O)c1ccc(NC(=O)c2ccc(NS(C)(=O)=O)cc2)cc1
→ >57, -0.7%
> COc1ccc(C(=O)N2CCC3(CCN(Cc4ccc(C#N)cc4)CC3)CC2)cc1
→ >57, ?
> CC1CCCCC1NC(=O)CSc1nnc(-c2ccccc2)n1N (centres undefined)
→ >57, -4.6%
> Cc1ccc(S(=O)(=O)Cn2nnnc2C(CC(C)C)N2CCN(C(=O)c3ccco3)CC2)cc1 (centres undefined)
→ >57, -7.7%
> Cc1nc(NC(=O)c2ccco2)sc1C(=O)Nc1ccc(Br)cc1
→ >57, ?
> CO[C@H]1[C@H](O[C@H]2O[C@@H](C)[C@@H](O[C@@H]3C[C@](C)(O)[C@H](OC(=O)CC(C)C)[C@H](C)O3)[C@@H](N(C)C)[C@@H]2O)[C@@H](CC=O)C[C@@H](C)[C@@H](O)/C=C\C=C/C[C@@H](C)OC(=O)C[C@H]1OC(C)=O
→ >57, 7.5%[3.58 µM]
> C#CCn1c(=NC(=O)CSCC(=O)N2CCOCC2)sc2ccccc21
→ >57, 5.9%
> CCNC(=O)CN(c1ccc(CC)cc1)S(C)(=O)=O
→ /, -4.9%
> CCOC(=O)C1=C(C)NC2=C(C(=O)CCC2)C1c1cc(OC)ccc1OC (centres undefined)
→ /, 4.5%
> Cc1cc(OCC(=O)N2CCOCC2)cc2oc(=O)c3ccccc3c12
→ >57, 9.1%
> O=C(c1cnccn1)N1CCC2(CC1)CCN(c1cccc(-c3ccccc3)c1)CC2
→ >57, -12.2%
> CCS(=O)(=O)N1CCC(C(=O)NCc2cccs2)CC1
→ >57, 2.9%
> CCCn1c(C)cc(C(=O)CN2C(=O)c3ccccc3C2=O)c1C
→ >57, 10.9%
> CCN(CC)CCNC(=O)CCCCn1c(=S)[nH]c2c([nH]c3ccc(OC)cc32)c1=O
→ >57, 4.0%
> CC1=CCC(C(C)(C)NC(=O)c2ccccc2)C/C1=N\O (centres undefined)
→ /, -15.9%
> CCOC(=O)c1c(C)c(C(=O)NCCc2ccc(S(N)(=O)=O)cc2)c(C)n1CC
→ >57, 8.2%
> Cc1ccc(NC(=O)N2CCC(C(=O)NCC(C)C)CC2)cc1
→ >57, -11.9%
> O=S(=O)(NCCNS(=O)(=O)c1ccccc1)c1ccccc1
→ /, -12.5%
> CC1=C(C(=O)OCC(C)C)C(c2ccc(F)cc2)NC(=O)N1 (centres undefined)
→ >57, -5.8%
> COc1ccc(/C=N/n2cnnc2SCc2ccccc2)cc1
→ >57, -17.1%
> COC(=O)c1ccc(C(NC(=O)OCc2ccccc2)/C(=C/[C@@H](C)C(=O)Nc2ccccc2)c2cccnc2)cc1 (some centres undefined)
→ /, -3.3%
> Cc1c(NS(=O)(=O)N2CCCC2)c(=O)n(-c2ccccc2)n1C
→ >57, -2.9%
> Cc1ccc(Cn2ccc(NC(=O)c3cc(-c4ccc5c(c4)OCO5)on3)n2)cc1
→ >57, 0.7%
> N=c1sccn1CC(=O)Nc1ccccc1Cc1ccccc1
→ >57, -12.9%
> Cc1ccc(S(=O)(=O)N(Cc2cc3cc4c(cc3[nH]c2=O)OCCO4)CC2CCCO2)cc1 (centres undefined)
→ >57, 2.5%
> CCOC(=O)C1=C(CN2CCOCC2)NC(=O)NC1c1cc(C)ccc1C (centres undefined)
→ >57, 4.8%
> C[C@@]1(C(=O)O)CCC[C@@H]1C(=O)O
→ >57, -0.6%[8 µM]
> CC(C)CC(c1nnnn1CCc1ccccc1)N1CCN(C(=O)c2ccco2)CC1 (centres undefined)
→ >57, 4.8%
> Cc1nc2ccccc2c2c1C(=O)N(C)C2=O
→ >57, 3.1%
> COc1ccccc1N1CCN(C(=O)C2c3ccccc3Oc3ccccc32)CC1
→ >57, ?
> O=C(O)[C@@H]1[C@@H]2O[C@H]([C@@H](Br)[C@H]2Br)[C@H]1C(=O)O
→ >57, -11.5%[8 µM]
> CCOc1cc2c(cc1OCC)C(C(=O)O)C(c1cc(Br)c(O)c(OC)c1)N(C)C2=O (centres undefined)
→ >57, -5.6%

Three entries from above, arranged by molar mass, smallest number first:
Sequence of screens: Prx2 Sm inh, LT uptake inh
> CC1=C(C(=O)OCC(C)C)C(c2ccc(F)cc2)NC(=O)N1 (centres undefined)
→ >57, -5.8%
> CCCn1c(C)cc(C(=O)CN2C(=O)c3ccccc3C2=O)c1C
→ >57, 10.9%
> CCOc1cc2c(cc1OCC)C(C(=O)O)C(c1cc(Br)c(O)c(OC)c1)N(C)C2=O (centres undefined)
→ >57, -5.6%

Next section.
Sequence of screens: Prx2 Sm inh, LT uptake inh
> CCCNC(=O)OC[C@@H]1O[C@H](CCO/N=C(\C)CCN2CCCc3nc(C)c(C)cc32)C=C[C@@H]1Oc1ccc(OC)cc1
→ /, 0.3%[8 µM]
> COc1ccc(OC)c(N2C(=O)C(Cl)=C(N3CCOCC3)C2=O)c1
→ >57, -14.9%
> CN(CC(=O)N1CCc2ccccc2C1)S(=O)(=O)c1ccc2c(c1)c(=O)n(C)c(=O)n2C
→ >57, 1.0%
> OCCn1cnc2c(SCc3ccccc3)ncnc21
→ >57, 5.2%[8 µM]
> O=C1CCCN1c1cc(Cl)ccc1Cl
→ >57, 6.8%
> CCN(CC)C(=O)c1ccc2c(c1)N(Cc1ccccc1)C(=O)CS2=O (centres undefined)
→ >57, 0.4%
> O=C(Nc1cccc(F)c1)C1CCCN1S(=O)(=O)c1cccc2cccnc12 (centres undefined)
→ >57, -20.0%
> O=C(OCN1C(=O)c2ccccc2C1=O)c1ccccc1
→ >57, ?
> CCc1ccc(C(=O)Nc2ccc(S(=O)(=O)Nc3nc(C)cc(C)n3)cc2)o1
→ >57, -8.9%
> COc1cc(C(=O)Nc2ccc(N(C)C)cc2)cc(OC)c1OC
→ /, -10.7%
> O=C(c1c(Cl)cccc1Cl)N1CCN(c2ccccn2)CC1
→ >57, -8.1%
> O=C(CN1C(=O)NC2(CCCc3ccccc32)C1=O)N1CCN(C(=O)c2ccco2)CC1 (centres undefined)
→ >57, -15.3%
> OCC1CCCN(Cc2ccc(-c3ccccc3)cc2)C1 (centres undefined)
→ >57, -17.1%
> CC1(c2ccc3noc(-c4ccc(Cl)cc4)c3c2)OCCO1
→ >57, ?
> Cc1cc2ccc(C)c(C)c2nc1SCC#N
→ >57, ?
> COc1ccc(Cc2nnc3c4cnn(C)c4ncn23)cc1
→ >57, 13.1%
> COc1ccccc1-c1cc(C(=O)NCc2ccc(Cl)cc2)no1
→ >57, ?
> CCC(NC(=O)OC(C)(C)C)C(=O)Oc1ccc2c3c(c(=O)oc2c1)CCC3 (centres undefined)
→ 55.4*, /
> Cc1occc1-c1nnc(SCC(=O)N2CCOCC2)n1CCc1ccccc1
→ >57, 9.9%
> CCOC(=O)c1c(N)n(Cc2ccco2)c2nc3ccccc3nc12
→ /, ?

The final 2 compounds of the section before lead into the next.
Sequence of screens: Prx2 Sm inh, LT uptake inh
> Cc1occc1-c1nnc(SCC(=O)N2CCOCC2)n1CCc1ccccc1
→ >57, 9.9%
> CCOC(=O)c1c(N)n(Cc2ccco2)c2nc3ccccc3nc12
→ /, ?
> O=c1c2c(nc3c(-c4ccc(Cl)cc4)c[nH]n13)CCCC2
→ >57, 13.9%
> CC(=O)Nc1ccccc1Sc1ccccc1
→ >57, -17.7%
> CC1=NCC[N@@+]1(CCc1ccccc1)Cc1ccccc1
→ >57, -6.6%[8 µM]
> Cc1cccc(-n2c(SCC(=O)NCc3ccco3)nnc2-c2ccco2)c1
→ >57, 4.7%

Complete entries as entered above. Screens in order: Prx2 Sm inh | LT uptake inh
Record of Cc1noc(C)c1COC(=O)C1COc2ccccc2O1 (centres undefined) → >57 | 15.4%
Record of N=c1sccn1CC(=O)Nc1ccccc1Cc1ccccc1 → >57 | -12.9%
Record of Cc1ccc(S(=O)(=O)N(Cc2cc3cc4c(cc3[nH]c2=O)OCCO4)CC2CCCO2)cc1 (centres undefined) → >57 | 2.5%
Record of CCOC(=O)C1=C(CN2CCOCC2)NC(=O)NC1c1cc(C)ccc1C (centres undefined) → >57 | 4.8%
Record of CCN(CC)CCNC(=O)CCCCn1c(=S)[nH]c2c([nH]c3ccc(OC)cc32)c1=O → >57 | 4.0%

Among those listed so far, these contain two or more sulfur atoms.
Sequence of screens: Prx2 Sm inh, LT uptake inh
> CC(C)c1nnc(NC(=O)c2cccs2)s1
→ >57, 10.7%
> C#CCn1c(=NC(=O)CSCC(=O)N2CCOCC2)sc2ccccc21
→ >57, 5.9%
> CCS(=O)(=O)N1CCC(C(=O)NCc2cccs2)CC1
→ >57, 2.9%
> O=S(=O)(NCCNS(=O)(=O)c1ccccc1)c1ccccc1
→ /, -12.5%

Compound activity as filed in PubChem.
